Assay outcomes deposited in PubChem BioAssay by National Center for Advancing Translational Sciences (NCATS).
miR-21 reporter – miR-21 reporter, rising signal | Potency, µM (top dose mostly 38.3 µM), inactives show at the highest dose reporter change, positive = more light | 340,000 tested, under 10 active | HeLa miR-21 FLuc reporter, luciferase, 48 h; active = well fitted rising curve with a large enough effect; inconclusive = small, poorly fitted or top-dose-only effect; inactive = no such curve, though single readings can be large or run the other way;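 also: % of control where 0% means no effect; miR-21 action dims this reporter so a rising signal means less miR-21 action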
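Luminescence from a firefly luciferase reporter carrying a miR-21 binding site downstream, stably expressed under a CMV promoter in HeLa cells that make miR-21 endogenously, reports miRNA modulation after 48 h compound exposure up to approximately 40uM final.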
Rango complex inh – inhibitors of Rango-importin beta complex formation; Q14974; Rango CFP/YFP FRET sensor + importin beta, 45 min; Potency, µM (titrated, usually from 92.2 µM), inactives show top-dose inhibition of complex formation; actives 0.031% (n = 340,000); active = rising FRET ratio curve, often small or poorly fitted; inconclusive = mostly compound fluorescence or quenching in the first reads; inactive = flat curves in all reads;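 also: potency is read from the fitted curve at half-maximal effect; 0% = DMSO wells and 100% = buffer wells lacking importin beta; nearly all actives have a fitted effect of over 15% in size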
Target sequence (Q14974 whole entry, looked up): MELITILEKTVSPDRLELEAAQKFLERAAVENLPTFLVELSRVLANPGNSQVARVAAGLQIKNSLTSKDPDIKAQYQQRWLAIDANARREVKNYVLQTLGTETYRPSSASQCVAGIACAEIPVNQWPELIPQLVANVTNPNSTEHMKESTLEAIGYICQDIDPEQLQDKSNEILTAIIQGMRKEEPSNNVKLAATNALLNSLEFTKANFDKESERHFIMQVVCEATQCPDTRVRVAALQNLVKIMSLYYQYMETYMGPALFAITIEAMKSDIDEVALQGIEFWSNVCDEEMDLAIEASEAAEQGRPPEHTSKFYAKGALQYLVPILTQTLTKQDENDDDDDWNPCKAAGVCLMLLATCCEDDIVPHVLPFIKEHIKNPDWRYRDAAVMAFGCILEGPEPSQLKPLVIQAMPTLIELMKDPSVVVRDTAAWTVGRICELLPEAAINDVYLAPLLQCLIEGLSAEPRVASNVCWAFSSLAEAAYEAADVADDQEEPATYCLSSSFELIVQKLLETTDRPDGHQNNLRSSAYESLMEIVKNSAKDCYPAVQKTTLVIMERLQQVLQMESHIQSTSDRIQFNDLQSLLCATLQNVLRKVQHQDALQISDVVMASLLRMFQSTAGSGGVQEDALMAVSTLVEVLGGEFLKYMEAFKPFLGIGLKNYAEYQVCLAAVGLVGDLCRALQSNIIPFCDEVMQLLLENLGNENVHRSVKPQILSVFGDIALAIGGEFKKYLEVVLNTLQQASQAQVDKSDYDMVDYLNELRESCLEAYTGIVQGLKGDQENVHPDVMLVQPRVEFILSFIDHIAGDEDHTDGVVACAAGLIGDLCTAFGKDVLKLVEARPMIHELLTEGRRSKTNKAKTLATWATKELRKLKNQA
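Inhibition scored from the CFP 486 nm/YFP 530 nm FRET ratio 45 min after adding 0.125 microM importin beta to 50 nM Rango biosensor preincubated 5 min with compound (room temperature, PBS with DTT, Tween-20, BSA). No-importin wells as positive control.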
Rango dissoc inh – inhibition of RanGTP-driven Rango-importin beta dissociation; Biochemical FRET Rango-importin beta, RanGTP-induced dissociation; Potency, µM (titrated, usually from 46.1 µM), for inactives: top-dose activity change, negative = inhibition; actives 0.071% (n = 340,000); active means falling FRET ratio curve, often poorly fitted, with flat reads before Ran was added; inconclusive means other falling curves, or compound fluorescence or quenching; inactive means flat or rising ratio curve;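 also: potency is read from the fitted curve at half-maximal effect; % of control where 0% means no effect; nearly all actives have a fitted effect of over 45% in size; -100% = wells without RanGTP and RCC1; the record marks most hits as doubtful in a second field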
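Rango FRET biosensor (snurportin-1 IBB flanked by N-terminal EYFP and C-terminal CFP10) at 0.1 uM, with 0.25 uM importin beta in PBS, 1mM DTT, 0.02% Tween-20, 0.1% BSA. 0.6 uM Ran, 2mM GTP and 0.2 uM RCC1 were then added for 45 min at room temperature. Inhibition read as loss of FRET rise.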
GLA inh pH 4.5 – alpha-galactosidase A (human) inhibition, pH 4.5. purified enzyme, 4-MU-alpha-Gal fluorescence, pH 4.5. activity change, negative = inhibition, % at 105 µM. 230,000 tested, under 10 active. AID 1467; inconclusive = small, poorly fitted or top-dose-only inhibition, or a rising curve; inactive = flat fitted curve, though single readings scatter; no compound was filed as active;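 also: 0% = full activity with enzyme and -100% = basal without enzyme; dose as in the result columns while the protocol names 77 µM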
Starred values were filed as active, the others as inactive; ? = inconclusive; . = no result given. An excerpt; the hit share may differ from the screen's.

miR-21 reporter,Rango complex inh,Rango dissoc inh,GLA inh pH 4.5,Molecule
2%,0.9%,-6%,-18,C=CCN(CC(O)c1cccc([N+](=O)[O-])c1)C(C)CCc1ccccc1 (stereo not given)
-7%,-0.7%,9%,4,NNC(=O)c1csc(-c2cccc(C(F)(F)F)c2)n1
-5%,3.0%,-1%,-11,CC(C(=O)Nc1nccs1)N1C(=O)C2CC=CCC2C1=O (stereo not given)
-14%,1.8%,3%,6,O=C(/C=C/c1cccs1)NC1CC1
.,3.5%,8%,.,COc1ccccc1C(=O)NCCC(=O)Nc1nc2ccccc2[nH]1
-4%,-0.9%,13%,1,Cc1cc(C)n(-c2n[nH]c(C)c2[N+](=O)[O-])n1
-5%,3.0%,-1%,6,CC(C)(C)NC(=O)COc1ccc(CNn2nnnc2N)cc1
-3%,-0.4%,-1%,4,Nc1ccccc1C(=O)NCc1ccc(F)cc1
-10%,-1.1%,-9%,2,O=C(OCc1nnc(-c2ccccc2)o1)c1cccnc1Cl
0%,-5.9%,5%,.,O=C(O)COc1ccc(Br)cc1C(c1c(C(=O)O)[nH]c2ccccc12)c1c(C(=O)O)[nH]c2ccccc12
.,-1.3%,-5%,.,O=C(CSc1nc(=O)n(CCCN2CCOCC2)c2c1CCCC2)Nc1cccc(Cl)c1
-7%,3.0%,-4%,.,CC1(C)C(=O)OC(C(=O)c2ccc(Cl)cc2)C(C)(C)C1=O (stereo not given)
-2%,-3.2%,-2%,15,CSc1nc2c(c(=O)n1C)SC(C)C2 (stereo not given)
-7%,4.1%,6%,-5,CCOC(=O)C(=O)/C(=C\N(C)C)c1onc(-c2ccccc2)c1C(=O)OC
-15%,-0.5%,0%,4,COc1ccc(S(=O)(=O)/N=C2/NC(=O)/C(=C\c3ccco3)S2)cc1

The list continues.
miR-21 reporter,Rango complex inh,Rango dissoc inh,GLA inh pH 4.5,Molecule
2%,-0.9%,-6%,.,O=C1CCC(C(=O)N2CCCC(C(=O)c3ccc4ccccc4c3)C2)=NN1 (stereo not given)
-3%,0.1%,3%,.,COc1cccc(OCCOc2ccc(/C=C3\C(=N)N4N=C(S(C)(=O)=O)SC4=NC3=O)cc2OC)c1
1%,-0.3%,0%,16,O=c1[nH]c2ccccc2c(O)c1-c1ccccc1
3%,-2.2%,2%,.,COCCn1cnc2c1c(=O)n(Cc1ccccc1C#N)c(=O)n2Cc1ccccc1
22%,2.8%,24%,.,O=C(Nc1ccc(Nc2ccccc2)cc1)c1cc([N+](=O)[O-])ccc1Cl
1%,3.3%,7%,1,Cc1ccc(-c2nnnn2C2C/C(=N\NC(N)=S)C3OCC2O3)cc1 (stereo not given)
-6%,1.7%,9%,.,Cc1cccc(NC(=O)c2cccc(C(=O)Nc3cccc(C)n3)c2)n1
-4%,?,-8%,.,CCc1ccc(NC(=O)Nn2cnnc2)cc1
-46%,-1.7%,4%,-1,O=C(NCCC1=CCCCC1)C1COc2ccccc2O1 (stereo not given)
-1%,-0.3%,3%,.,CC1CN(C(=O)CCC(=O)NCCCN2C(C)CCCC2C)c2ccccc2O1 (stereo not given)
19%,0.7%,1%,-10,Cc1ccc(C)c2[nH]c(=O)c(CN(Cc3ccco3)C(=O)Nc3ccccc3)cc12
-6%,?,0%,.,O=C1Nc2ccccc2C(=O)N2[C@H](c3cccc(Br)c3)[C@@H]3C(=O)N(Cc4ccccc4)C(=O)[C@@H]3[C@H]12
0%,0.7%,11%,-23,CSc1c(-c2ccccn2)c(N)nn1C(=O)C1CC1
-2%,0.5%,1%,5,C=CCN1C(=O)C(CC(=O)O)SC1=Nc1ccc(C(=O)O)cc1 (stereo not given)
-1%,3.8%,-4%,1,CCOC(=O)N1CCN(C(=O)CN(c2cc(C(F)(F)F)ccc2Cl)S(C)(=O)=O)CC1

Next records follow.
miR-21 reporter,Rango complex inh,Rango dissoc inh,GLA inh pH 4.5,Molecule
-41%,?,?,1,O=C(/C=C/Nc1ccc(Cc2ccc(N/C=C/C(=O)C(F)(F)F)cc2)cc1)C(F)(F)F
0%,5.0%,55%,.,Cc1ccc(NC(=O)CSCc2cc(=O)n3ccsc3n2)c(C)c1
-3%,1.8%,2%,0,Cc1cc(C)n(-c2nc3ccccc3c(=O)n2OCC(=O)OCc2ccccc2)n1
-20%,-0.6%,-12%,-8,COc1cc2c(cc1NC(=O)C(C)OC(=O)c1ccc(S(=O)(=O)Nc3ccccc3Cl)cc1)oc1ccccc12 (stereo not given)
19%,-4.1%,9%,.,CC1Cc2cc(S(=O)(=O)CCC(=O)NCc3ccco3)ccc2N1C(=O)C1CC1 (stereo not given)
-1%,-1.0%,-7%,0,Cc1cccc(Sc2nc(-c3ccccc3)ccc2C#N)c1
2%,-0.9%,2%,8,O=C1OC(/C=C/c2ccccc2)=NC/1=C\c1cccnc1
3%,-0.1%,1%,.,CC1CCc2sc(C(=O)N(C)CC(=O)Nc3ccc(N4CCOCC4)cc3)cc2C1 (stereo not given)
-3%,-0.5%,3%,.,COc1cccc(C(C(=O)NC2CCCC2)N(C(=O)c2ccco2)c2ccc(C(C)=O)cc2)c1OC (stereo not given)
5%,3.0%,13%,2,Cc1nn(C)cc1C(N)=O
.,-1.3%,8%,.,C[C@]12c3[nH]c4cc(-c5ccco5)ccc4c3CCN1C(=O)[C@@H](CC(=O)NCc1cccc(C(F)(F)F)c1)C[C@@H]2C(=O)N1CCCCC1
-66%,6.4%,-16%,-3,Nc1nc2c(Cl)cc(Cl)cc2s1
.,3.3%,-1%,.,CC(NS(=O)(=O)c1ccc(Cl)c(Cl)c1)C(=O)OCC(=O)N1CCCCCC1 (stereo not given)
-8%,-2.3%,-4%,-2,COc1ccc(S(=O)(=O)N(C)CC(=O)NCCC2=CCCCC2)cc1
12%,-2.3%,-4%,-7,CC(C)NS(=O)(=O)c1ccc(Oc2ncc(C(F)(F)F)cc2Cl)cc1

Further structures follow:
miR-21 reporter,Rango complex inh,Rango dissoc inh,GLA inh pH 4.5,Molecule
25%,2.5%,4%,1,c1ccc(-c2csc3ncnc(NCCN4CCOCC4)c23)cc1
0%,-1.2%,-14%,2,CC(=O)Nc1ccc(NC(=O)C2CCN(C(=O)c3ccc([N+](=O)[O-])cc3)CC2)cc1
-3%,0.5%,0%,3,CCCNC(=O)COC(=O)c1ccc(OCC(=O)Nc2ccccc2OC)c(OC)c1
1%,-0.1%,-3%,.,CC(=O)Nc1ccc(NS(=O)(=O)c2cccc3nonc23)cc1
-14%,0.4%,19%,6,C=CCNC(=O)c1cc2sccc2n1C
-87%,-2.2%,20%,1,Clc1ccc(OCc2noc(-c3ccsc3)n2)c(Cl)c1
6%,-2.8%,-9%,5,Cc1ccc(S(=O)(=O)N2CCOCC2)cc1NC(=O)COc1ccc(-c2nnco2)cc1
.,0.7%,-5%,.,O=C(Nc1ccc(N2CCOCC2)cc1)c1ccc(Cl)c(S(=O)(=O)N2CCCCC2)c1
0%,2.1%,-5%,-15,Cc1ccc(N=Cc2ccc(N(C)C)cc2)cc1C
-2%,-0.3%,3%,-1,CC1CCN(CCCNC(=O)c2cn(C)c3ccc(S(=O)(=O)N4CCCC4)cc3c2=O)CC1
-11%,1.5%,-12%,.,COc1cc2ncnc(NCc3cc(F)ccc3F)c2cc1OC
.,0.0%,?,.,COc1cc(-c2noc(C)c2C(=O)NCCc2ccccc2)cc(OC)c1OC
.,1.5%,-3%,.,CN(C)S(=O)(=O)c1cccc(NC(=O)COc2ccc(S(=O)(=O)N3CCOCC3)cc2Cl)c1
-2%,-0.7%,-11%,7,Cc1ccc(CSCc2ccc(C(=O)NC3CCCC3)o2)cc1
-12%,6.1%,-4%,.,COc1ccccc1/C=N/OCc1ccc(C#N)cc1

5 entries already listed, ordered by the number in Rango dissoc inh, high to low.
structure | miR-21 reporter | Rango complex inh | Rango dissoc inh | GLA inh pH 4.5
Cc1nn(C)cc1C(N)=O | 5% | 3.0% | 13% | 2
CC1CCc2sc(C(=O)N(C)CC(=O)Nc3ccc(N4CCOCC4)cc3)cc2C1 (stereo not given) | 3% | -0.1% | 1% | .
CN(C)S(=O)(=O)c1cccc(NC(=O)COc2ccc(S(=O)(=O)N3CCOCC3)cc2Cl)c1 | . | 1.5% | -3% | .
Cc1cccc(Sc2nc(-c3ccccc3)ccc2C#N)c1 | -1% | -1.0% | -7% | 0
CCc1ccc(NC(=O)Nn2cnnc2)cc1 | -4% | ? | -8% | .

Later entries.
miR-21 reporter,Rango complex inh,Rango dissoc inh,GLA inh pH 4.5,Molecule
3%,0.8%,-7%,.,Cc1ccc[n+](CC(=O)Nc2ccc(C)c(C)c2)c1
0%,-0.2%,2%,.,CCOC(=O)C1CCN(C(=O)c2cc(S(=O)(=O)N(C)C)ccc2N2CCCC2)CC1
-10%,-2.9%,-15%,.,O=S(=O)(NCCc1ccc(Cl)cc1)c1cccs1
4%,2.4%,34%,-6,O=C(Nc1ccc2c(c1)OCO2)c1cccc2c1C(=O)N(C1CCCCC1)C2
6%,0.6%,-3%,-4,CCN(CC)S(=O)(=O)c1ccc(/C=C/C(=O)OCC(=O)c2c(N)n(C)c(=O)n(C)c2=O)cc1
-43%,6.1%,16%,-3,O=C(Cn1nc(-c2ccccc2)c2ccccc2c1=O)Nc1ccc2c(c1)nc1n2CCOC1
4%,3.8%,2%,.,CCOC(=O)CSc1n[nH]c(=O)n1CCc1ccccc1
1%,-3.0%,-2%,-1,CCCNS(=O)(=O)c1cccc(C(=O)NC2CCCc3ccccc32)c1 (stereo not given)
2%,?,-10%,.,CC(=O)N1CCC(C(=O)N2CCN(S(=O)(=O)c3ccc(F)cc3)CC2)CC1
-2%,5.2%,-24%,.,O=C(OCc1ccccc1F)c1cnc(Cl)c(Cl)c1
7%,-1.2%,1%,.,COc1cc(C(=S)N2CCOCC2)ccc1OC(=O)c1cccc(C)c1
-25%,1.7%,2%,4,CN(Cc1nc2ccccc2[nH]1)Cc1nc(CC2CC2)no1
-8%,?,?,.,O=C(NN=C1CCCCCC1)c1cc2ccccc2cc1O
1%,-0.4%,-5%,3,O=C(NC1CC1)C1=C[C@H](c2ccccc2)C[C@H](OCc2ccc(CO)cc2)O1
-5%,-1.7%,7%,8,CC(C)(c1ccccc1)c1ccc(OCCN)cc1

Going on with the list.
miR-21 reporter,Rango complex inh,Rango dissoc inh,GLA inh pH 4.5,Molecule
2%,5.6%,1%,.,O=C(NNS(=O)(=O)c1ccc([N+](=O)[O-])cc1)c1ccc([N+](=O)[O-])cc1
.,-1.3%,-4%,.,CC(OC(=O)c1ccco1)C(=O)Nc1ccc(C(F)(F)F)cc1 (stereo not given)
.,2.2%,1%,.,CC(C)(C)[C@H]1COC(=O)CCC/C=C/C[C@H](CC(=O)N(CCO)Cc2ccccc2)C(=O)N1
.,0.1%,1%,.,COCCn1c(SCC(=O)NNC(=O)c2ccccc2)nc2ccccc21
-75%,-1.1%,2%,8,Cc1nc2cc(-c3ccc(Cl)cc3)nn2c(NCCN(C)C)c1C
.,-1.5%,-5%,.,CCCc1nnn(S(=O)(=O)c2ccc([N+](=O)[O-])cc2)c1CCC
-5%,0.4%,-6%,6,O=C(NCc1ccc(F)cc1Cl)C1CCN(S(=O)(=O)N2CCC3(CC2)OCCO3)CC1
0%,-0.2%,3%,.,Cc1cc(NS(=O)(=O)c2cn(C)nc2C)no1
.,1.6%,16%,.,C=CC[C@@H](CC(=O)NCCO)C(=O)NC[C@H](OC(=O)[C@@H](CC=C)CC(=O)OC(C)(C)C)c1ccccc1
2%,0.0%,16%,.,COc1ccc(OC)c(S(=O)(=O)N2CCCC(C(=O)N3CCCC3)C2)c1 (stereo not given)
9%,?,-11%,.,Cc1ccccc1OCC(=O)N/N=C/c1ccc(N2CCOCC2)o1
4%,-0.4%,15%,1,Cc1cc(C)cc(N(CC(=O)NCCSCc2ccco2)S(C)(=O)=O)c1
.,11%,0%,.,S=c1[nH]nc(SCc2ccccc2)c2[nH]cnc12
.,-0.1%,4%,.,CCC1(c2ccccc2)NC(=O)N(CC(=O)Nc2cc(S(=O)(=O)N3CCCCCC3)ccc2OC)C1=O (stereo not given)
-33%,0.2%,-6%,5,O=C(Nc1ccc2c(c1)CCC2)c1ccccc1
18%,-3.4%,13%,4,CC(=O)N1CCN(c2ccc(Oc3nnnn3-c3ccccc3)cc2)CC1
-13%,2.3%,-13%,0,CCC(=O)Nc1ccc2c(c1)ncn2-c1ccccc1OC
